Bioassay records deposited in PubChem BioAssay by ICCB-Longwood Screening Facility, Harvard Medical School.
Ba CapD inh – blocks the Bacillus anthracis CapD enzyme; purified CapD enzyme, fluorescence intensity read-out; stronger effect = lower value; some hits fall short of the stated cut; z-score (concentration not given with the values); 140,000 tested, 0.23% active;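 active = z-score under -4 in either of two replicates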;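 note: stock transfer was 100 nL into about 40 µL; score is relative to mean and spread of the plate; one replicate is shown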
AID504770 – E. coli YBA685 growth inhibition, screen for V. cholerae RctB inhibitors; E. coli YBA685 rctB-dependent plasmid, OD600 growth, 3 h; stronger effect = lower value; z-score (no concentration beside the values); 130,000 tested, 0.27% active;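 active = z-score under -2 on both plates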;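 note: wells of about 30 µL received 100 nL stock; score is relative to mean and SD of the test wells; the first replicate is given; strong numbers were not always called active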
The depositor's hits bear a star; . = not tested or not shown; & = joins results of further samples. These rows are one share of the data, so the mix of outcomes need not match the whole.

Values run as follows: Ba CapD inh, AID504770
CC(C)(C)C1CCc2oc3ccc(NS(=O)(=O)c4ccc(F)cc4)cc3c2C1 (configuration not stated)
 : -0.24, .
Cn1c(=O)c2c(nc(OCc3ccccc3)n2C)n(C)c1=O
 : -0.02, 0.3
CC1CC(=O)NN=C1c1ccc2c(c1)nnn2O (configuration not stated)
 : ., 0.8
CNS(=O)(=O)c1ccc(SC)cc1
 : 0.14, -0.5
O=C(O)c1ccc2nccnc2c1
 : ., 0.15
O=C(CSC1=NS(=O)(=O)c2cc(F)ccc2N1)NC1CCCC1
 : ., 0
CCOC(=O)C1=C(N)n2c(s/c(=C\c3cccc(Br)c3)c2=O)=C(C#N)C1c1cccc(Br)c1 (configuration not stated)
 : 5.8, .
COc1ccc(Cl)cc1S(=O)(=O)Nc1ccc(CC(=O)O)cc1
 : -0.69, -0.5
Cc1csc(=O)n1CN1CCN(S(=O)(=O)c2ccccc2C#N)CC1
 : ., 0.3
CCOC(=O)N1CCN(C(=O)c2cc(I)ccc2NC(=O)c2ccco2)CC1
 : -0.035, -1.2
CCc1ccc2[nH]c(=O)c(CN(Cc3ccccc3)Cc3nnnn3C3CCCC3)cc2c1
 : ., 0
NC(=O)Cc1nc2ccccc2[nH]1
 : 0.25, 1.1
Cc1ccc(N2C3=C(C(=O)CC(C)(C)C3)C(c3cnn(C)c3)C3=C2CC(C)(C)CC3=O)cc1
 : -0.24, 0.05
CCOC(=O)c1c(C)nn(-c2ccc([N+](=O)[O-])cc2)c1C
 : 0.38, .
O=C(O)C1CC(=O)N(CCc2cccs2)C1 (configuration not stated)
 : 0.57, 0.25
COC(=O)c1c(OC)ccc(N=CNO)c1OC
 : 0.23, .
Cc1cc(C)c(C)c(S(=O)(=O)NC2(C#N)CCCCC2)c1C
 : ., -0.55
O=C(NC(=O)c1cc(-c2ccc(Cl)cc2)oc1C(F)(F)F)c1ccccc1O
 : -0.95, 1.5
C#CCNC(=O)NC1CCCN(S(=O)(=O)c2ccc(C)cc2)C1 (configuration not stated)
 : ., 0.1
Cc1onc(-c2c(Cl)cccc2Cl)c1NC(=O)O/N=C/c1ccc(Cl)cc1Cl
 : 8.1, .
C(=Nc1ccccc1)c1ccc(Oc2ccccc2)cc1
 : -0.49, 1.5
CC(C)C12CN3CC(C(C)C)(CN(C1)C3c1c(O)ccc3ccccc13)C2=O (configuration not stated)
 : 1.1, .
CC1(O)N(CCc2ccccc2)C(=O)OC12CCCCC2 (configuration not stated)
 : -0.05, -0.65
CCN(c1ccccc1)S(=O)(=O)c1ccc(Sc2nnc(-c3cccs3)n2CC2CCCO2)nc1 (configuration not stated)
 : ., -0.15
O=C(CSc1nnc(Cc2cccs2)n1C1CCCCC1)c1ccccc1
 : ., -0.2
O=C(O)CC(CC(=O)O)c1ccc(Cl)cc1Cl
 : -0.21, -0.8
CC(C)CC1=NN2C(=N)/C(=C/c3cccs3)C(=O)N=C2S1
 : 0.37, 0
Cn1c(SCC(=O)Nc2ccc3c(c2)OCO3)nc2c([nH]c3ccccc32)c1=O
 : 0.91, 1.6
CC(=O)N1CCN(CC(=O)Nc2ccc3c(c2)OC(F)(F)O3)CC1
 : ., -1.1
COc1cccc(/C=c2/sc3n(c2=O)C(N)=C(C#N)C(c2cccc(OC)c2)C=3C#N)c1 (configuration not stated)
 : -0.25, .

Part of the list above in a different format.
> CCOC(=O)N1CCN(C(=O)c2cc(I)ccc2NC(=O)c2ccco2)CC1
  Ba CapD inh: -0.035 | AID504770: -1.2
> COc1ccc(Cl)cc1S(=O)(=O)Nc1ccc(CC(=O)O)cc1
  Ba CapD inh: -0.69 | AID504770: -0.5

Following part
Values run as follows: Ba CapD inh, AID504770
Cc1ccc(Cn2c(=O)c3ccccc3n3c(CCC(=O)O)nnc23)cc1
 : 0.22, -0.75
O=C(O)CCCc1nc2ccccc2s1
 : ., -1.4
CN1CCN(S(=O)(=O)c2ccc(Br)cc2)CC1
 : -0.23&-0.41, -1.3
CCN(CC)c1ccc2cc(-c3nc4ccccc4n3C)c(=O)oc2c1
 : ., -0.35
O=C(CCSc1nc(-c2ccco2)cc(C(F)(F)F)n1)NCCc1ccccc1
 : -0.64, -0.6
COC(=O)c1ccc(CSC(=N)N)o1
 : ., -0.4
CC(C)(O)C(=O)/C=C/c1ccc(Cl)cc1
 : -1.6, -0.05
Nc1cnn(C2OC(COC(=O)c3ccccc3)C(O)C2O)c(=O)n1 (configuration not stated)
 : 0.035, 0.65
CN(C)c1ccc(NC(=O)COC(=O)Cc2ccc(Br)cc2)cc1
 : -1, 1.8
CC(C)(CNc1nsc2ccccc12)N1CCOCC1
 : ., -0.85
CCOC(=O)c1cc(C)nc(S(C)(=O)=O)c1C#N
 : 6.4, -0.05
COc1ccc(CCn2c(N)cc(=O)[nH]c2=O)cc1OC
 : 0.32, -0.65
COc1ccc(C2NN=C3c4[nH]c5ccc(C)cc5c4CCC32)cc1 (configuration not stated)
 : -3.1, 0.3
c1ccc(-c2[nH]ncc2CN2CCc3ccccc3C2)cc1
 : -0.33, -0.95
Fc1ccc(NC(=S)NC2CN3CCC2CC3)cc1 (configuration not stated)
 : ., 1.2
COc1ccc(Cc2nc3c4c5c(sc4ncn3n2)C(C)(C)NC(C)(C)C5)cc1
 : 0.1, .
Cc1cc(C)c(C)c(S(=O)(=O)NCCCO)c1C
 : 0.74, .
COC(=O)CSc1nc(C)nc(SC)c1C#N
 : -1.2, -1.4
O=C(O)CC(c1ccccc1)n1cnnn1 (configuration not stated)
 : 0.06, -0.7
Cc1cc(C)c2nc(N3CCC(C(=O)NCC4CCCO4)CC3)sc2c1 (configuration not stated)
 : -0.12, -0.05
CCCn1cnc2c(sc3nc4c(cc32)CSC(C)(C)C4)c1=O
 : 0.67, -0.8
CC(=O)Nc1ccc(NS(=O)(=O)c2cc(Cl)sc2Cl)cc1
 : -1.2, 0.25
O=C(CSc1nnc2c(n1)[nH]c1ccccc12)NCc1ccco1
 : -0.21, -0.25
CCn1c(SCC(=O)OCC(=O)Nc2cccc(C(F)(F)F)c2)nnc1-c1ccco1
 : ., -0.5
CCn1c(=NC(=O)C2CC2)sc2cc(Br)ccc21
 : ., -0.65
N#C/C(=C\c1cccs1)Sc1nc2ccccc2s1
 : -2.1, -0.8
CN1C=NC(O)(c2ccccc2)c2cc(Cl)ccc21 (configuration not stated)
 : 0.59, 0.3
O=C(NO)c1cc(OCC(F)(F)F)ccc1OCC(F)(F)F
 : -0.5, -0.85
CCOCCOC(=O)C1=C(C)NC2=C(C(=O)CCC2)C1c1cc(OC)c(OC)cc1Br (configuration not stated)
 : 1.4, .
COc1ccc(S(=O)(=O)N2CCCCC2C(=O)O)cc1OC (configuration not stated)
 : 4.6, -0.6

Entries of single compounds, quoted from the list. Screens in order: Ba CapD inh	AID504770
CCn1c(SCC(=O)OCC(=O)Nc2cccc(C(F)(F)F)c2)nnc1-c1ccco1 is listed with .	-0.5
O=C(CCSc1nc(-c2ccco2)cc(C(F)(F)F)n1)NCCc1ccccc1 is listed with -0.64	-0.6

Given as comma-separated lines: 7 of the compounds above
SMILES,Ba CapD inh,AID504770
Cc1ccc(Cn2c(=O)c3ccccc3n3c(CCC(=O)O)nnc23)cc1,0.22,-0.75
O=C(O)CCCc1nc2ccccc2s1,.,-1.4
CN1CCN(S(=O)(=O)c2ccc(Br)cc2)CC1,-0.23&-0.41,-1.3
CCN(CC)c1ccc2cc(-c3nc4ccccc4n3C)c(=O)oc2c1,.,-0.35
O=C(CCSc1nc(-c2ccco2)cc(C(F)(F)F)n1)NCCc1ccccc1,-0.64,-0.6
COC(=O)c1ccc(CSC(=N)N)o1,.,-0.4
CC(C)(O)C(=O)/C=C/c1ccc(Cl)cc1,-1.6,-0.05

(cont.)
Values run as follows: Ba CapD inh, AID504770
COc1cc(Cc2cc(OC)c(C)cc2OC)c(OC)cc1C
 : -0.28, -0.4
COc1ccc(NC(=O)CN2NS(=O)(=O)c3ccccc3C2=O)cc1Cl
 : ., -0.45
CCn1cnc2nc(N)[nH]c(=O)c21
 : -0.62, -1.1
N#Cc1ccc(C(=O)CN2C(=O)S/C(=C\c3ccccc3)C2=O)cc1
 : ., 1.5
CCCc1cc(=O)[nH]c(SCC(=O)c2cc(C)n(-c3nccs3)c2C)n1
 : ., 0.25
O=c1onc(-c2ccccc2)n1-c1cccc(C(F)(F)F)c1
 : -0.39, 0.25
CC1CCCN(CCCNC(=O)C2CCCN(c3ncnc4c3nc3n4CCCCC3)C2)C1 (configuration not stated)
 : -0.33, -0.65
COc1ccc(C2C3=C(CC(C)(C)CC3=O)OC3=C2C(=O)CC(C)(C)C3)cc1CN1C(=O)c2ccccc2C1=O
 : -0.25, .
CCN(CC)C(=O)CN1C(=O)C2(OCC(C)(c3ccccc3)CO2)c2ccccc21 (configuration not stated)
 : -0.93, 0.8
O=C(COC(=O)C1(c2ccc(F)cc2)CCCC1)NCc1ccco1
 : 0.24, -1.2
O=C(NCCOc1ccccc1)c1ccccc1Cl
 : 0.3, 0.45
CCC(C(=O)Nc1ccc(OC)c(OC)c1)c1ccccc1 (configuration not stated)
 : 0.14, 0.35
Cc1cc(N2OCc3ccccc3CO2)ccc1N
 : -0.64, -0.45
COc1ccc(C2Oc3ccccc3C=C2[N+](=O)[O-])cc1 (configuration not stated)
 : -0.055, .
COc1ccc(-c2nnn(CC(=O)N(c3ccccc3)C(C(=O)NC3CCCC3)c3ccco3)n2)cc1 (configuration not stated)
 : ., -0.7
ClCc1nc(Cl)c2c3c(sc2n1)CCCC3
 : -0.65, -0.9
CC(C)(C)c1ccc(O)c(NC(=O)OCCc2ccc(Cl)cc2)c1
 : -0.09, .
CCc1ccc(NC(=S)N(CCCN2CCCC2)Cc2ccco2)cc1
 : 0.025, .
CC12CC(NC(=O)N1c1ccccc1)c1ccccc1O2 (configuration not stated)
 : ., 0.1
c1ccc(-c2noc(CSc3nnnn3C3CCCCC3)n2)cc1
 : -0.12, -0.75
COc1ccc(/C(C)=N/O)cc1CN1CCCC1
 : -0.57, -1
Cc1cc(/C=C(\C#N)C(=O)OCc2cc(=O)oc3cc(O)ccc23)c(C)n1CC(C)C
 : ., 0.25
CN(CC(=O)N1CCCCC1)S(=O)(=O)c1ccc2c(c1)c(=O)n(C)c(=O)n2C
 : 0.27, 0

Quoted from the listing.
`CCN(CC)C(=O)CN1C(=O)C2(OCC(C)(c3ccccc3)CO2)c2ccccc21` (configuration not stated) | AID504770 = 0.8
`CC(C)(C)c1ccc(O)c(NC(=O)OCCc2ccc(Cl)cc2)c1` | Ba CapD inh = -0.09
`COc1ccc(C2Oc3ccccc3C=C2[N+](=O)[O-])cc1` (configuration not stated) | Ba CapD inh = -0.055
`COc1ccc(-c2nnn(CC(=O)N(c3ccccc3)C(C(=O)NC3CCCC3)c3ccco3)n2)cc1` (configuration not stated) | AID504770 = -0.7
`CCc1ccc(NC(=S)N(CCCN2CCCC2)Cc2ccco2)cc1` | Ba CapD inh = 0.025
